StopGo reporter: FMDV 2A StopGo reporter, luciferase signal | actives 1.2% (n = 410,000) | Potency, µM (series often up to 57.9 µM), inactives show at the highest dose signal change, negative = less light | human cells with a luciferase reporter of 2A StopGo recoding; control for the full effect not named in the record; active = well fitted falling curve with a large enough effect; inconclusive = small, poorly fitted or top-dose-only effect; inactive = no such curve, though single readings can be large or run the other way; tested in HEK293T cells; also: nearly all actives have a fitted effect of over 45% in size; luciferase light after 4 h
RE007 growth inh: less growth of the S. pombe RE007 Vpr strain; AID 651644; Potency, µM (top dose mostly 92.2 µM), for inactives: at the highest dose activity change, negative = less growth; S. pombe RE007 Vpr strain, BacTiter-Glo ATP luminescence, 24 h; control for the full effect not named in the record; actives 0.21% (n = 360,000); active = well fitted falling curve with a large enough effect; inconclusive = small, poorly fitted or top-dose-only effect; inactive = no such curve, though single readings can be large or run the other way;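 also: nearly all actives have a fitted effect of over 50% in size; the assay follows cell death caused by Vpr and the record does not say whether a fall means rescue or toxicity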
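Fission yeast strain RE007, carrying one chromosomally integrated HIV-1 vpr copy, was seeded at OD 0.01 in PMG+AL medium with 23 nL pinned compound. After 24 h at 30 °C and 99% humidity, viability was read by BacTiter-Glo luminescence.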
Numbers without * were called inactive; ? = inconclusive; · = not tested or not shown; [ ] = remark or other dose. % is scaled to controls: 0 for no effect and ±100 for the full control effect; potency is read from the fitted curve at half-maximal effect.

SMILES	StopGo reporter	RE007 growth inh
C[C@@H]1CN([C@@H](C)CO)C(=O)c2cc(Br)cnc2O[C@@H]1CN(C)S(C)(=O)=O	-18%	-20%
CC(=O)n1cc([C@H]2C=C(C(N)=O)O[C@@H](OCc3ccc(CO)cc3)C2)c2ccccc21	0%	8%
OCC1OCOC2C(CO)OCOC12 (stereo not drawn)	-20%	7%
O=C(Nc1ccc2c(c1)OCCO2)C1c2ccccc2OCC(=O)N1Cc1ccccn1 (stereo not drawn)	-7%	2%
CCCNC(=O)c1cc(C2CCCCN2C(=O)c2ccc3c(c2)CCO3)on1 (stereo not drawn)	-14%	-3%[18.4 µM]
O=C(OCC(=O)N1CCNC1=O)c1ccccc1Cl	54%[activator]	17%
FC(F)(F)c1ccccc1Cc1c(-c2cccc(Br)c2)nc2ccc(Cl)cn12	-9%	-6%
Clc1cccc(Cc2c(C3CCCCC3)nc3ccc(Br)cn23)c1	-5%	-21%
CC(=O)N(C)c1ccc(NC(=O)Nc2ccc(Cl)cc2)cc1	0%	12%
CN(C)c1ccc(CNC(=O)C2Cc3c(-c4ccccc4Oc4ccccc4)ccnc3O2)cc1 (stereo not drawn)	-14%	18%
CNc1ccc2ncc(-c3ccc(OC)c(OC)c3)n2n1	-4%	-18%
CC(C(=O)NCc1ccccc1)n1c(CSCCOc2ccccc2)nc2ccccc21 (stereo not drawn)	-20%	11%
O=C(NCC1CCCCC1)c1ccc2sc([C@H]3C[C@H](O)[C@@H](CO)O3)nc2c1	-5%	1%[18.4 µM]
CC(C)(C)c1ccc(S(=O)(=O)NC(=O)C2(C)CCN2C(=O)CC2CC2)cc1 (stereo not drawn)	6%	8%
CC(C)(C)c1ccc(CC(=O)N2CCC2(C)C(=O)NS(=O)(=O)c2ccccc2)cc1 (stereo not drawn)	10%	7%
Nc1ccccc1SC(CC(=O)c1ccccc1)c1cccc([N+](=O)[O-])c1 (stereo not drawn)	-49%	?
Cn1cc([C@]2(O)C(=O)Nc3ccc(F)cc32)c2ccccc21	-13%	-8%
COc1ccc(OC)c(C=NNC(=O)NN=Cc2cc(OC)ccc2OC)c1	-29%	-15%
COc1ccc([C@H]2C[C@H](n3cc(C4CC4)nn3)[C@@H](O)CN2C(=O)C2CCCCC2)cc1	-10%	13%
COc1cc(CNc2ncnc3c2ncn3[C@H]2CN(Cc3ccncc3)C[C@@H](CO)O2)cc(OC)c1OC	?	-7%
COc1cc(C(=O)NNC(=O)COc2ccc(Br)cc2)ccc1OCC(=O)N1CCOCC1	-8%	8%
N#Cc1ccccc1S(=O)(=O)N1CCN(C(=O)CCNS(=O)(=O)c2ccc(Cl)cc2)CC1	-8%	-8%
C=CC[C@H]1C=C[C@@H](C(C(=O)OC)C(=O)OC)CN1C(C)=O	-20%	-3%
CC[C@]12C(=O)N(C)C[C@H]([C@@H]3C(=O)N(C)C(=O)[C@@H]31)N2C(=O)c1ccc(C(C)(C)C)cc1	-21%	-15%
Nc1nc(N=Nc2ccc(O)cc2)cc(=O)[nH]1	0%	-14%
C[C@H]1CN([C@@H](C)CO)C(=O)CCCn2cc(nn2)CO[C@@H]1CN(C)C(=O)Nc1cccc2ccccc12	-11%	4%
CC(=O)Oc1ccc(N(C(C)=O)S(=O)(=O)c2ccccc2)c2ccccc12	-15%	-1%
OCCCNc1ncnc2c1ncn2[C@H]1CN(Cc2ccc(-c3ccccc3)cc2)C[C@@H](CO)O1	?	6%
Cc1ccc2c(=O)n3c(nc2c1)C(CC(C)C)NC(=O)c1cccnc1-3 (stereo not drawn)	-28%	2%
COC(=O)[C@@]12C[C@@H](CC(=O)NCCc3ccccc3OC)C(=O)N(Cc3ccc4c(c3)OCO4)C1=CCC(C)(C)C2	-1%	0%
O=c1[nH]c2ccccc2n1C1CCN(C(c2ccccc2OC(F)(F)F)c2nnnn2Cc2ccccc2)CC1 (stereo not drawn)	?	4%
Oc1ccc(C[C@H]2CN([C@@H](Cc3ccccc3)CN3CCCC3CN3C(=S)NC[C@@H]3Cc3ccccc3)C(=S)N2CCc2ccccc2)cc1 (stereo partly drawn)	-14%	-19%
Cc1ccc(NC(=O)CN2CCN(S(=O)(=O)c3ccc4c(c3)OCCO4)CC2)c(C)c1	-21%	-3%
O=C1NCN(c2ccccc2)C12CCN(C(c1ccccc1OC(F)(F)F)c1nnnn1Cc1ccccc1)CC2 (stereo not drawn)	-9%	8%
C/C(=N\NC(=O)c1nnn(-c2nonc2N)c1CSc1ccc(C)cc1)c1cccs1	-9%	0%
Cc1ccc(NC(=O)c2nc[nH]c2C(=O)Nc2ccccc2F)cc1	-9%	-8%
O=C(C1CN(C(=O)c2cc3ccccc3o2)c2ccccc2O1)N1CCCCC1 (stereo not drawn)	-7%	-2%
CCc1ccccc1NC(=O)CSc1nc2cc(C(=O)NCC3CCCO3)ccc2c(=O)n1CC1CCCO1 (stereo not drawn)	-12%	-12%
OC[C@@H]1CN(Cc2ccco2)C[C@H](n2cnc3c(NC4CCC4)ncnc32)O1	-17%	0%
CSC[C@H]1CN(Cc2ccccc2)C(=O)[C@@H]1CC(=O)Nc1ccccc1	5%	-33%
CCN1C(=O)[C@H]2[C@@H](c3ccc(OC)cc3)N[C@]3(CCCN(Cc4ccc(Br)cc4)C3=O)[C@H]2C1=O	-19%	9%
CCc1nc2ccc(C(=O)NCc3ccccc3OC)cn2c1N(CC)CCN(C)C	-3%	-15%
CC(=O)NCCNc1nc2cc(-c3cc(F)ccc3C)sc2c(=O)n1C	2%	-5%
COc1cc(NC(=O)c2sc3ncn(CC(=O)N4CCCCC4C)c(=O)c3c2C)cc(OC)c1OC (stereo not drawn)	?	4%
COc1ccc(CCNC(=O)C(=O)c2cn(CC(=O)N3CCCC3)c3ccccc23)cc1	-15%	-1%

Looked up by structure from above (four):
SMILES	StopGo reporter	RE007 growth inh
Cc1ccc(NC(=O)c2nc[nH]c2C(=O)Nc2ccccc2F)cc1	-9%	-8%
O=c1[nH]c2ccccc2n1C1CCN(C(c2ccccc2OC(F)(F)F)c2nnnn2Cc2ccccc2)CC1 (stereo not drawn)	?	4%
OC[C@@H]1CN(Cc2ccco2)C[C@H](n2cnc3c(NC4CCC4)ncnc32)O1	-17%	0%
O=C1NCN(c2ccccc2)C12CCN(C(c1ccccc1OC(F)(F)F)c1nnnn1Cc1ccccc1)CC2 (stereo not drawn)	-9%	8%

Remaining list, next part
SMILES	StopGo reporter	RE007 growth inh
O=C(NCc1ccccc1)C1=C[C@H](c2ccccc2)C[C@H](OCc2ccc(CO)cc2)O1	14%	0%
CCC(C)n1c(SCC(=O)NC2CC2)nc2ccccc2c1=O (stereo not drawn)	-3%	10%
Cc1ccccc1NC(=O)CN1CCN(c2ccc(F)cc2)CC1	-15%	-11%
COc1ccccc1Cc1c(-c2ccco2)nc2c3ccccc3ccn12	10%	?
N#C/C(=C\c1ccc(O)cc1)C(=O)O (tested in a mixture with another compound)	0%	6%[18.4 µM]
CNc1ccc(-c2cccc([N+](=O)[O-])c2)cn1	15%	-15%[18.4 µM]
COc1cccc(/C=C/C(=O)N2CCN(S(=O)(=O)c3ccccc3)CC2)c1	-21%	4%
O=C1NC(=O)C(=C2CCOC2=O)N1	-3%	5%
COc1cc(-c2cnc3c(NC=O)cc(-c4ccccc4)cn23)cc(OC)c1OC	?	3%
COc1ccc(CN2CCN(Cc3c[nH]c4ccccc34)CC2)cc1OC	-8%	-10%
CCOC(=O)c1c(NC(=O)CN2CCN(S(=O)(=O)c3cc(Cl)ccc3Cl)CC2)sc(C(=O)N(C)C)c1C	?	8%
C#CCN(C[C@H]1[C@H](OC(=O)NCc2ccccc2)[C@H](OC(=O)NCc2ccccc2)C[C@@H](C(=O)OC)[C@H]1C(=O)OC)S(=O)(=O)c1ccc(C)cc1	?	4%
Cc1ccc(NS(=O)(=O)c2ccc(-c3coc(C)n3)cc2)c(Cl)c1	-21%	2%
Cc1cccn2c(=O)c3cc(C(=O)NCc4ccccc4)c(=N)n(CCCN4CCOCC4)c3nc12	-9%	3%
C/C(=C(/CCO)SSCC1CCCO1)N(C=O)Cc1cnc(C)nc1N (stereo not drawn)	-21%	·
C#CCNC(=O)C[C@@H]1C[C@@]2(C(=O)OC)CC(C)(C)CC=C2N(CCc2ccc(OC)c(OC)c2)C1=O	-2%	-8%
CCN(CC)c1nc(N)c2c(N)nc(OC)cc2c1C#N	-20%	-2%
S=c1[nH]cc2cnccn12	?	18%
CC(=O)Nc1cc(-c2ccccc2N(C)C)cn2c(-c3ccc(S(C)(=O)=O)cc3)cnc12	-24%	21%
CC(C)C[C@@H]1O[C@H](CCc2ccccc2)Cc2[nH][nH]c(=O)c21	0%	1%
CC(C)[C@@H](N)C(=O)NC[C@H]1O[C@@H](n2cnc3c(=O)[nH]c(N)nc32)[C@H](O)[C@@H]1O	0%	-6%
C[C@H](CO)N1C[C@H](C)[C@@H](CN(C)Cc2cccc(F)c2)Oc2cc(-c3cccc(C#N)c3)ccc2S1(=O)=O	-5%	-9%
COC(=O)C[C@@H]1C=C[C@@H](NC(=O)c2ccccc2F)[C@@H](CO)O1	-13%	5%
CC1(C(=O)NS(=O)(=O)C2CC2)CCCN(C(=O)c2cc3ccccc3s2)C1 (stereo not drawn)	-10%	12%
C[C@@H]1CN([C@H](C)CO)C(=O)CCCn2cc(nn2)CO[C@H]1CN(C)C(=O)Nc1ccccc1	-20%	-8%
Cc1cc(Br)cn2c(Cc3cccc(F)c3)c(-c3ccccc3)nc12	0%	-2%
CC(C)N=C(N)N=C(N)Nc1ccc(Cl)cc1	-4%	-9%
NC(c1csc(NC(=O)Nc2cccc(Cl)c2)n1)C1CCCCC1 (stereo not drawn)	-11%	11%
CCOc1cccc(Cc2c[nH]c(=O)[nH]c2=O)c1	-3%	-4%
CCC(c1nnnn1C(C)(C)C)N1CCC2(CC1)C(=O)NCN2c1ccccc1 (stereo not drawn)	-11%	7%
c1ccc(OCCNc2nc(NCC3CC3)nc3cc(-c4ccccc4)sc23)cc1	?	-11%
CC(C)C[C@@H]1CN(CCCC[C@H]2CNC(=O)C(=O)N2CCC2CCCCC2)C(=O)C(=O)N1CCC1CCCCC1	?	3%
COc1ccc(CN2C(=O)c3cccc4cccc(c34)C2c2nc3ccccc3[nH]2)cc1 (stereo not drawn)	33%[activator]	38%
CCOC(=O)[C@]12CCCC=C1N(Cc1ccc3c(c1)OCO3)C(=O)[C@H](CC(=O)N1CCSCC1)C2	-4%	-21%
CC(=O)Nc1ccc(-c2ccnc3c2CC(C)(C(=O)NCCC(F)(F)F)O3)cc1 (stereo not drawn)	-11%	-10%[18.4 µM]
Clc1ccccc1-c1cnc2sc(NCc3ccc4c(c3)OCO4)nn12	-14%	22%
COc1ccc(Cc2nc3ccc(C(=O)N4CCCCC4CO)cc3o2)cc1OC (stereo not drawn)	?	-3%
CN1CCC(N2CCN(C3CN(CCc4ccccc4)S(=O)(=O)C3)CC2)CC1 (stereo not drawn)	-9%	-3%
CCNC(=O)C1(C)CCN(C(=O)c2ccc(OC)cc2OC)C1 (stereo not drawn)	-15%	5%[18.4 µM]
COc1ccc(OC)c(C(O)c2ncc(-c3cccc4ccccc34)[nH]2)c1 (stereo not drawn)	-8%	-18%[18.4 µM]
CC(O)(c1ccncc1)c1nc(-c2cccc(C(F)(F)F)c2)cs1 (stereo not drawn)	?	-3%
O=C1NCN(c2ccccc2)C12CCN(C(CCc1ccccc1)c1nnnn1C1CCCCC1)CC2 (stereo not drawn)	-23%	4%
CC(C)CC1NC(=O)c2cccnc2-n2c1nc1ccccc1c2=O (stereo not drawn)	-18%	-7%
N#Cc1cccc(C(Br)S(=O)(=O)c2ccccc2)c1 (stereo not drawn)	-26%	1%
O=C1CSC(=S)N1N=Cc1cccc(OCc2ccccc2)c1	31%[activator]	-15%

Record cards, from the list above. Order of values: StopGo reporter	RE007 growth inh
Profile of `c1ccc(OCCNc2nc(NCC3CC3)nc3cc(-c4ccccc4)sc23)cc1` : ?	-11%
Profile of `CCOC(=O)[C@]12CCCC=C1N(Cc1ccc3c(c1)OCO3)C(=O)[C@H](CC(=O)N1CCSCC1)C2` : -4%	-21%

More records.
SMILES	StopGo reporter	RE007 growth inh
CC(C)(C)Cc1c(-c2ccc(Cl)cc2)nc2ccc(Br)cn12	-1%	-3%
COc1ccc(C(c2nnnn2C(C)(C)C)N2CCN(C/C=C/c3ccccc3)CC2)cc1 (stereo not drawn)	5%	2%
CCCCNC(=O)C[C@@H]1C[C@@]2(C(=O)OC)CCCCC=C2N(Cc2ccc(Cl)cc2Cl)C1=O	-9%	10%
COc1ccc(OCC(=O)N2CCc3ccccc32)c([N+](=O)[O-])c1	62%[activator]	-1%
CS(=O)(=O)c1ccc(Cl)c(NC(=O)CSc2nnc3n2CCCCC3)c1	-15%	-5%
NC(CSC(c1ccccc1)(c1ccccc1)c1ccc(-c2ccccc2)cc1)C(=O)O (stereo not drawn)	-1%	-5%
CC(O)(c1cccnc1)c1nc(-c2cccc(C(F)(F)F)c2)cs1 (stereo not drawn)	0%	7%

Four compounds out of the list, arranged by SMILES length, highest first:
SMILES	StopGo reporter	RE007 growth inh
COc1ccc(C(c2nnnn2C(C)(C)C)N2CCN(C/C=C/c3ccccc3)CC2)cc1 (stereo not drawn)	5%	2%
NC(CSC(c1ccccc1)(c1ccccc1)c1ccc(-c2ccccc2)cc1)C(=O)O (stereo not drawn)	-1%	-5%
CS(=O)(=O)c1ccc(Cl)c(NC(=O)CSc2nnc3n2CCCCC3)c1	-15%	-5%
CC(C)(C)Cc1c(-c2ccc(Cl)cc2)nc2ccc(Br)cn12	-1%	-3%

Screening results deposited in PubChem BioAssay by National Center for Advancing Translational Sciences (NCATS).

This is a subset; count on the stated rates, not on these rows.
